From PubChem BioAssay
PABP polyA inh = PABP poly(A) RNA binding inhibitors, primary screen, biochemical, fluorescence polarization, uHTS | Polyadenylate-binding protein 1 (Homo sapiens), P11940 | hit rate 1% among 290,000 | inhibition, % at 35 µM;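 active means 50% or more with normal probe brightness, or confirmed in later tests; inconclusive means above 50% with abnormal brightness, or retests that disagree; inactive means below 50% or failed in later tests; about a fifth of its hits are not listed in these tables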;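 further: calls also rest on retests at 20 µM and on dose response follow-up; controls were probe without protein and protein plus probe with vehicle; some compounds called inactive have numbers as strong as hits; many hits fall short of the cut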
Target sequence (P11940 whole entry, looked up): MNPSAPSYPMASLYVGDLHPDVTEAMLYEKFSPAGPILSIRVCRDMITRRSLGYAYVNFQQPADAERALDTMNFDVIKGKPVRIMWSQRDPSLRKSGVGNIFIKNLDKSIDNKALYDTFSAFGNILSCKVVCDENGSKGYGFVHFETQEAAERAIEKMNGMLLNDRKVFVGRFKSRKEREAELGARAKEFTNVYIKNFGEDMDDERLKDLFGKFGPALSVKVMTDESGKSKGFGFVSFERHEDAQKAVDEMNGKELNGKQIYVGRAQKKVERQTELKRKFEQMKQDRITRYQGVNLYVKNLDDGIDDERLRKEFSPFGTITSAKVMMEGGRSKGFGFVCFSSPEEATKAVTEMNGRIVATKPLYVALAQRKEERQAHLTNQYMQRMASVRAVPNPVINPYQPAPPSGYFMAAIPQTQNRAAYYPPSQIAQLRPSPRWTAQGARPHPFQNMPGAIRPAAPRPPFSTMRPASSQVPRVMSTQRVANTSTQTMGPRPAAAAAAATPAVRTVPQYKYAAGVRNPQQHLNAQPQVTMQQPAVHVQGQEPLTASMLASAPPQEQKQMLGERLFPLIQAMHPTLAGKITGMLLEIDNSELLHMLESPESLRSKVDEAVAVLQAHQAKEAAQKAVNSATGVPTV
Yeast UUG start = modulators of yeast start codon fidelity, primary screen, whole organism, S. cerevisiae, single point, plate reader; AID 602363, 2012; S. cerevisiae UUG-firefly luciferase reporter, luminescence/redox ratio; hit rate 0.13% among 350,000; activity score, % at 18.7 µM;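 active means replicate mean at a twofold rise or more, about +100% in these data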;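 further: firefly luciferase made from a UUG start codon reports start codon fidelity; reporter light over untreated wells divided by growth signal over untreated wells; some hits fall short of that in this replicate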
Rce1 inhib = yeast Rce1p protease inhibitors, primary screen, biochemical, fluorescence, cell-free homogeneous; AID 2563, 2010; CAAX prenyl protease 2 (Saccharomyces cerevisiae (strain ATCC 204508 / S288c)), Q03530; hit rate 0.27% among 290,000; calls only; yeast membranes, quenched prenylated peptide cleavage fluorescence;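 active means fall in fluorescence gain of 50% or more versus controls, with final raw signal at or below 3038400; inconclusive means same 50% fall but final raw signal above 3038400; inactive means fall in fluorescence gain under 50%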;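 further: plate controls were neutral control wells for no effect and wells lacking membranes for full effect; tested at 10 µM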
MT1-MMP act inh = blockers of MT1-MMP proenzyme processing, primary screen, HT1080 RFP-PRO-GFP cells, GFP/RFP fluorescence; AID 651647, 2012; GFP/RFP ratio change, % at 20 µM; GFP/RFP ratio fluorescence, overnight; percent of plate control window, DMSO zero; Matrix metalloproteinase-14 (Homo sapiens), P50281; hit rate 0.061% among 360,000;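 active means GFP/RFP ratio change of at least 30% with cell ATP level not reduced by more than half and red fluorescence within 50% of control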; further: strong numbers were not always called active
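system = RFP-PRO-GFP reporter HT1080 cells | dosing = 20 µM single dose, 1% DMSO | timing = overnight cell settling, then overnight compound exposure, 37 °C, 5% CO2 | read-out basis = GFP/RFP fluorescence ratio | controls = DMSO and RFP-L50D-GFP cell wells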
CSC inhib = cancer stem cell viability inhibitors, primary screen, luminescence; cancer stem cell-like cells viability; AID 2717, 2010; hit rate 1.1% among 300,000; inhibition, % at 7.5 µM;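 active means mean at 75% or more and at least half the replicates too; inconclusive means mean and replicates disagree; tested in HMLE shEcad cells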;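 further: 0% = median of negative and 100% = median of positive control wells; the first replicate is given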
eIF4H inh = human eIF4H binding inhibitors, primary screen, translation initiation inhibitor project, biochemical, uHTS, fluorescence polarization | Eukaryotic translation initiation factor 4H (Homo sapiens), Q15056 | eIF4H fluorescence polarization binding assay | inhibition, % at 35 µM | hit rate 0.94% among 290,000 | AID 2012, 2009;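 active means 50% or more with normal probe brightness, or confirmed in later tests; inconclusive means above 50% with abnormal brightness, or retests that disagree; inactive means below 50% or failed in later tests; about a fifth of its hits are not listed in these tables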;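 further: calls also rest on retests at 20 µM and on dose response follow-up; 0% = protein and probe with vehicle and 100% = probe without protein; strong numbers were not always called active; many hits fall short of the cut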
Env fusion inh = inhibitors of HIV-1 Env-driven cell-cell fusion, primary screen, HeLa-JRFL effector, CEM21 target cells, luciferase. inhibition, % at 12.3 µM. hit rate 1.1% among 360,000. AID 651610, 2012;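 active means mean replicate inhibition score of at least 50 and every replicate individually at or above 50; inconclusive means only one of the two criteria met; inactive means mean below 50 and not all replicates reaching 50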;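 further: 0% = plate neutral controls and 100% = maraviroc near 300 nM; one replicate is shown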
MT1-MMP act inh RFP = also measured in MT1-MMP act inh; calls as there; RFP signal change, %; measured here: RFP expression control read;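 0 = vehicle wells; hits needed this value within 50% of zero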
An asterisk follows results filed as active; i = inactive; u = inconclusive; x = no result given; & = joins results of further samples.

Below each SMILES: PABP polyA inh, Yeast UUG start, Rce1 inhib, MT1-MMP act inh, MT1-MMP act inh RFP, CSC inhib, eIF4H inh, Env fusion inh
#1 Cc1ccc(S(=O)(=O)Nc2cccc(S(=O)(=O)Nc3ccccc3C(=O)O)c2)c(C)c1
  x, 0, x, 2, 5, -6, x, -14
#2 COc1ccc(C(=O)NC(=S)N2CCNC(=O)C2CC(=O)OC(C)C)cc1 (stereo unspecified)
  2, -28, i, 0, -1, -11, -5, 4
#3 CCOC(=O)C1CCN(C(=O)c2cc3c(C)cc(C)cc3[nH]2)CC1
  0, -6, i, 1, 3, x, -11, 18
#4 COc1ccc(/C(N)=C/C(=O)C(C)(C)C)cc1
  1, x, x, 1, 2, 11, -4, x
#5 Cc1ccccc1N/C(SCc1ccc(Cl)cc1)=C(/C#N)C(=O)NCc1ccco1
  -9, -7, i, -12, -6, 0, -16, 36
#6 Cc1ccc(C)c(Nc2nc(N)c3ccccc3n2)c1
  -6, x, i, 31*, -0.9*, -13, -4, -97
#7 CCC(C)NC(=O)CCC(=O)Nc1ccc2nc(N3CC(C)CC(C)C3)cc(C)c2c1 (stereo unspecified)
  -7, -7, i, -3, -4, -4, -8, -25
#8 CCCC[C@@H]1C=C(C(=O)O)[C@H](c2ccc(Cl)cc2)N1S(=O)(=O)c1ccc(C)cc1
  x, 1, x, 10, 0, 36, x, -2
#9 O=C(CCCC(=O)N(CC(=O)NC1CCCC1)Cc1ccccc1Cl)Nc1ccccn1
  -8, -5, i, 6, 5, x, -5, x
#10 CC(C)C[C@@H](CN1CCC[C@@H]1CN1C(=O)C(=O)NC[C@@H]1Cc1ccccc1)N1C[C@H](Cc2ccc(O)cc2)N(CC2CCCCCC2)C(=O)C1=O
  x, 7, x, -1, -6, x, x, -119
#11 CC(C)C1Cc2c(sc3c2c(=O)n(-c2ccccc2)c2n[nH]c(=S)n32)CO1 (stereo unspecified)
  -3, x, i, 3, 3, -3, -10, 10
#12 Cc1ccc(C(=O)N/N=C\C=C\c2ccccc2[N+](=O)[O-])cn1
  7, x, i, 3, 1, 11, 1, -2
#13 CC1c2ccsc2CCN1C(=O)NC(=O)c1ccc(Cl)cc1 (stereo unspecified)
  0, 4, i, 0, 2, -8, -5, 11
#14 CC(NC(=O)C(=O)NN=C1CCC(C(C)(C)C)CC1)c1ccccc1 (stereo unspecified)
  -3, 5, i, -4, 6, -3, -11, x
#15 Cc1cc(C)c2nc(N3CCCC(C(=O)NCCCN4CCOCC4)C3)sc2c1 (stereo unspecified)
  -10, x, i, 5, 0, -11, -18, -115
#16 CCC(=O)NC(c1cccs1)c1cc(Cl)c2cccnc2c1O (stereo unspecified)
  -1, x, i, -11, -6, 119*, 7, u
#17 CC1CN(Cc2csc(-c3ccc(Cl)cc3)n2)CC(C)O1 (stereo unspecified)
  -2, -16, i, 3, -8, -5, 6, 11
#18 CCOC(=O)CN1C(=O)C(O)(c2c(C)[nH]c3ccccc23)c2ccccc21 (stereo unspecified)
  14, -30, i, -1, -1, 5, 5, 5
#19 CCCc1nc2cc3c(cc2[nH]1)n(C)c(=O)n3C
  -4, -2, i, 3, 3, -5, -11, -2
#20 COc1ccccc1/C=N/NC(=O)c1ccc(-c2ccccc2)cc1
  4, x, i, 3, 1, x, -7, -25
#21 O=C(CNC(=S)N(CCCN1CCOCC1)Cc1cccs1)NCCCN1CCOCC1
  -2, -15, i, 3, 2, x, 6, 13
#22 OCC(CO)(CO)NCC(O)CN1c2ccccc2Sc2ccccc21 (stereo unspecified)
  -10, -11, i, 2, 2, -4, -3, x
#23 CC(=O)[C@H]1[C@H](CCc2ccccc2)NC(=O)N(Cc2ccccc2)[C@@H]1C
  7, 5, i, 2, -11, -6, 0, 0
#24 CC1(C)CC(=O)c2cc(C(=O)O)c(=O)n(-c3ccccc3)c2C1
  6, -22, i, -1, 0, 14, 3, -45
#25 O=C(c1cc2ccccc2oc1=O)N(Cc1ccccc1)CC1CCCO1 (stereo unspecified)
  2, -6, i, -6, 4, -13, 3, -42
#26 Cn1cc2cc(NC(N)=S)ccc2n1
  -5, 7, i, 0, 5, -14, -6, -10
#27 CCOC(=O)c1cnc2c(C)c(Cl)ccc2c1N1CCN(CC)CC1
  -5, -17, i, -6, -3, -5, -1, 10
#28 COc1cccc(NC(=O)CSc2nnc(-c3cccc(OC(C)C)c3)n2N)c1
  2, -19, i, 0, -1, -8, 0, -35
#29 COc1ccc(OC)c(NC(=O)c2cccnc2)c1
  -1, -2, i, 2, -1, -8, 5, 13
#30 Cc1ccccc1C(=O)Nc1nnc(CC(=O)N/N=C/c2cn(Cc3ccccc3)c3ccccc23)s1
  0, x, i, -10, 0, 43, 16, 21
#31 CCCCC(=O)Nc1ccc(C(=O)NCCc2ccccc2)cc1
  -6, -18, i, 10, 6, -16, -3, 8
#32 Cc1ccc(CNC(=O)CN2C(=O)C3(OCCCO3)c3ccccc32)cc1
  -1, x, i, 1, 3, x, -5, x
#33 Cc1ccccc1CCNC(=O)C1CCCN(c2cnccn2)C1 (stereo unspecified)
  11, -16, i, 1, 7, x, 15, 6
#34 O=C(CO/N=C/c1ccccc1)Nc1c(F)c(F)c(F)c(F)c1F
  -2, x, i, 1, 4, x, 3, 6
#35 CCN(CC)CCCn1c(C)cc2c(c1=O)C(c1ccccc1)C(C#N)=C(N)O2 (stereo unspecified)
  3, -16, i, -1, 1, -7, -5, x
#36 CN(CC(=O)NCc1ccccc1F)S(=O)(=O)c1ccc(Cl)cc1
  8, 3, i, 4, 6, 7, 2, 1
#37 Cc1nnsc1S(=O)(=O)c1ccccc1
  -1, -19, i, 0, -1, -17, -7, -3
#38 COc1ccc(COC(=O)c2cccc(S(=O)(=O)N3CCCC3)c2)cc1F
  -9, -15, i, 2, -3, x, -16, 14
#39 CCN(CC)S(=O)(=O)c1ccc(N2CCOCC2)c(NC(=O)c2nn(C(C)C)c(=O)c3ccccc23)c1
  x, -15, x, -3, -7, x, x, 21
#40 Nc1nc(CN2CCN(c3ccccc3)CC2)nc(N2CCCc3ccccc32)n1
  -8, -13, i, -4, 1, x, -11, -11
#41 O=C(NCCCn1ccnc1)Nc1ccc2c(c1)OCO2
  -1, -1, i, 1, 1, 6, 1, -26
#42 S=C(NNc1ccnc2cc(Cl)ccc12)Nc1ccccc1Cl
  13, x, i, -13, -15, 32, 2, 22
#43 CC(=O)c1c(C)[nH]c(C(=O)CSc2nc3ccccc3n2C)c1C
  -7, x, i, -4, -24, x, -7, x
#44 Cc1ccc(CNC(=O)C2CCC(=O)N(C3CCCC3)C2)c(F)c1F (stereo unspecified)
  -3, -11, i, 1, -1, -12, 4, 10
#45 Cc1cc(=O)c2c(=O)[nH][nH]c2[nH]1
  x, -24, x, 3, 4, x, x, 3
#46 C=CCn1c(SCC(=O)/C(C#N)=C(\C)N)nc2sc(CC)cc2c1=O
  -9, 4, x, 3&16, -13&-4, -1, -3, u
#47 COc1nc(-c2ccccc2)ccc1-c1noc(COc2ccccc2)n1
  0, -3, i, -4, -3, 28, -15, -13
#48 CCN1CCN(c2ccc(S(=O)(=O)N3CCCCC3)cc2NC(=O)C(C)Oc2ccc(F)cc2)CC1 (stereo unspecified)
  x, -3, i, -5, -6, 14, x, 1
#49 CC(C)OCC(O)CS(=O)(=O)Cc1ccccc1 (stereo unspecified)
  -3, -19, i, -1, 0, -9, 2, x
#50 O=C(Nc1ncccn1)c1ccc([N+](=O)[O-])cc1Cl
  -5, -10, i, 0, 3, -11, -6, 7
#51 O=C(CCn1nnc(-c2cccs2)n1)NCc1ccccc1Cl
  5, -7, i, 2, -3, -1, -8, x
#52 COc1cc(C(=O)N(C)CCOc2ccc(C)cc2)ccc1OC1CCN(C(C)=O)CC1
  0, -5, i, 1, -2, -10, 4, 6
#53 CC(=O)c1c(C)oc2ccc(O)c(CN3CCOCC3)c12
  10, -11, i, 1, 7, -8, -1, -47
#54 O=C(CCl)c1ccc(Cc2ncc(C(F)(F)F)cc2Cl)s1
  9, -3, i, 8, 8, -16, -5, x
#55 COc1cc(C(C)=O)ccc1OC(=O)CN1C(=O)c2ccccc2C1=O
  -3, -15, i, 0, 1, -3, -2, 4
#56 COc1ccc(-c2nc(SCC(=O)Nc3cc(C)on3)n[nH]2)cc1
  2, -13, i, 1, -1, -2, -9, x
#57 C/C(=N\NC(=O)COc1ccc(C)cc1[N+](=O)[O-])c1ccc2c(c1)OCCO2
  4, -12, i, -1, 0, 12, -2, 9
#58 O=C(COC(=O)c1c2c(nc3ccccc13)CCCCC2)NCc1ccc2c(c1)OCO2
  2, x, i, 5, -4, 14, -7, -28
#59 C=CCn1c(SCc2nc3ccccc3[nH]2)nnc1-c1ccc(OC)cc1
  6, -9, i, 3, -8, -6, -10, x
#60 CCOC(=O)N1CCN(C(=O)CN(C2CCCCC2)S(C)(=O)=O)CC1
  4, 1, i, 0, 4, 6, 6, 0

Next section
Below each SMILES: PABP polyA inh, Yeast UUG start, Rce1 inhib, MT1-MMP act inh, MT1-MMP act inh RFP, CSC inhib, eIF4H inh, Env fusion inh
#61 CCN=C1SC(C(=O)Nc2cccc(Cl)c2)CC(=O)N1CC (stereo unspecified)
  14, x, i, 2, 2, -2, 0, -6
#62 O=C(c1ccc(NS(=O)(=O)c2cccc(F)c2)cc1)N1CCCCC1
  -3, 1, i, 6, -4, 3, -17, 4
#63 O=C(/C=C/c1ccccc1[N+](=O)[O-])N1CCN(C(=O)c2ccco2)CC1
  10, -13, i, -2, 0, -7, 4, 2
#64 CN(CC(=O)Nc1ccc(F)c(F)c1)S(=O)(=O)c1cccc2nsnc12
  -3, -15, i, 4, -3, 5, -10, -127
#65 CCCn1c(NCc2ccccc2NS(=O)(=O)c2ccc(C)cc2)nc2ccccc21
  8, x, i, -10, -13, 75*, 0, 5
#66 O=C(NCc1ccco1)c1ccc(N2CCCC2=O)cc1
  3, -3, i, 1, -1, -4, 11, -44
#67 Cc1cc(NC(=O)COC(=O)c2cccc(O)c2)no1
  4, x, i, 1, 3, -5, -9, -10
#68 CC(C)Cc1nnc(NC(=O)CC(C)c2ccccc2)s1 (stereo unspecified)
  1, -5, i, 0, 1, -12, 4, -1
#69 COc1cc(CC(NC(C)=O)C(=O)NC2CCN(c3nc(C)cc(C)c3C#N)CC2)cc(OC)c1 (stereo unspecified)
  4, -13, i, -9, 2, x, -5, x
#70 CC1CN(C(=O)C(C)N2CCN(c3cccc(Cl)c3)CC2)CC(C)O1 (stereo unspecified)
  10, x, i, -4, 4, 5, 0, 6
#71 COC(=O)c1sccc1NC(=S)N1CCN(c2cc(C)ccc2C)CC1
  4, -26, i, -7, -3, 44, 11, -6
#72 CC(C)N(c1ccccc1)c1ccc(NC(=O)C2CCCO2)cc1 (stereo unspecified)
  -7, -4, i, 0, 0, x, -9, -110
#73 COc1ccc(OC)c(S(=O)(=O)N2CCC(C(=O)Nc3ccc(C)c(C)c3)CC2)c1
  6, 21, i, 1, -9, -15, -7, u
#74 Cc1ccccc1/C=C/c1cc[n+](C)cc1
  4, x, i, -2, 2, -2, 4, 15
#75 O=C(Nc1ccccn1)c1ccc(Cl)c(S(=O)(=O)N2CCOCC2)c1
  -7, -19, i, 3, 4, -8, -2, -16
#76 Oc1ccc(/C=N/N2CCCCC2)c(O)c1
  8, -10, i, 1, -2, 1, 0, -26
